Sfp PPTase inh = qHTS Assay for Inhibitors of Bacillus subtilis Sfp phosphopantetheinyl transferase (PPTase) | Biochemical Sfp PPTase activity, qHTS | Potency, µM, inactives show max response, negative = inhibition, most hits filed as inhibitors | 310,000 tested, 3.5% active; active = well fitted inhibition curve with a large enough effect; inconclusive = small, poorly fitted or top-dose-only effect, or another doubt; inactive = no such curve, though single readings can be large or run the other way;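 note: the enzyme is Sfp with the accession as filed and its product quenches rhodamine fluorescence; potency is the fitted concentration of half-maximal effect; 0% = enzyme reaction without inhibitor and -100% = no enzyme wells; top concentration of the series not given in the record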
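Compounds were incubated with enzyme (final 15 nM) for 15 min at room temperature before substrate addition started the reaction. Fluorescence at 525 nm excitation, 598 nm emission was recorded immediately and after 30 minutes.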
TRPV1 potentiator = HTS Assay for Compounds that Act as Potentiators of the Vanilloid Receptor 1 | Transient receptor potential cation channel subfamily V member 1 (Homo sapiens), Q8NER1 | TRPV1-expressing cells, Fluo-8 calcium influx, capsaicin EC20 potentiation; host cell line not named in the record; control for the full effect not named in the record | potentiation, % at 8.33 µM | 320,000 tested, 0.02% active; active means potentiation above 80%; inconclusive means 30% to 80%; inactive means below 30%; note: 0% is about no effect
Target sequence (Q8NER1 whole entry, looked up): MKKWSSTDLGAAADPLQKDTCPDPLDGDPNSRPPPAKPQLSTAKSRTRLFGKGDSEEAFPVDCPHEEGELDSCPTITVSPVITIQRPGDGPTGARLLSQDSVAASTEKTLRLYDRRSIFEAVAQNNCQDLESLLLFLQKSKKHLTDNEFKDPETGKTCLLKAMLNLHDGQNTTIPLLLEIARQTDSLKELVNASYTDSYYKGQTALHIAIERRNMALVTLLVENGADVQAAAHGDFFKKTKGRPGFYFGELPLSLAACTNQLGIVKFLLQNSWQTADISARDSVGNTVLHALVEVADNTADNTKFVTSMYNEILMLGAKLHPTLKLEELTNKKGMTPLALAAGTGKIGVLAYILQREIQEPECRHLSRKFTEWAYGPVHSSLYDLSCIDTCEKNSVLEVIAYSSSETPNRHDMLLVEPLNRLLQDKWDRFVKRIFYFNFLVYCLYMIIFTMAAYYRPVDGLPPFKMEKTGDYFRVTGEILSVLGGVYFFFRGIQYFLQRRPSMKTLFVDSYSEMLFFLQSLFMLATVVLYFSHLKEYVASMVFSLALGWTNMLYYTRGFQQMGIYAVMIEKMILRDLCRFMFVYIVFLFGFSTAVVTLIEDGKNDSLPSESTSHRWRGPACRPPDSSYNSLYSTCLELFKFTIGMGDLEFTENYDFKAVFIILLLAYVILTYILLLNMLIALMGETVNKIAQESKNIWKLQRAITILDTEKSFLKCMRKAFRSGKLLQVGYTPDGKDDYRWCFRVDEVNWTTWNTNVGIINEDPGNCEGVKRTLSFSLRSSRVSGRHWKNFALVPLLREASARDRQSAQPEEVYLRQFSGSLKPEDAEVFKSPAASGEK
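TRPV1-expressing cells were cultured overnight at 35.5C and loaded with Fluo-8 calcium dye for 40 to 90 min at room temperature. After a 10 s baseline, compound was added and calcium influx was read kinetically for 3 min (ex 480/em 520 nm).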
CtBP-E1A blk = qHTS Assay for Inhibitors of the CtBP/E1A Interaction | AlphaScreen GST-E1A/His-CtBP binding, 1536-well; hits give low values; control for the full effect not named in the record | activity change, % (test concentration not listed) | 340,000 tested, 0.49% active | AID 651724, 2012; in the data active means activity change below about -65%; inconclusive means about -30% to -65%; inactive means above about -30%; note: % is set by controls: 0 for no effect and ±100 for the full control effect; compound concentration not given in the record
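Steps: dispense buffer (Tris pH 8.0, NaCl 300 mM, TCEP 1 mM, BSA, Tween 20); add 5X protein mix (GST-E1A, His-CtBP, 125 nM each); pin 23 nL compound; 2 h at 37 °C, dark; add 5X beads (50 ug/mL); 1 h; read.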
gsp antag = qHTS for Antagonists of gsp, the Etiologic Mutation Responsible for Fibrous Dysplasia/McCune-Albright Syndrome: qHTS; gsp-mutant cells, cAMP HTRF, 30 min; control for the full effect not named in the record; 340,000 tested, 0.4% active; Potency, µM (series often up to 76.9 µM), for inactives: top-dose activity change, negative = inhibition, actives largely listed as inhibitors; AID 624288, 2012; active = falling curve of any shape with a large fitted effect; inconclusive = falling curve, mostly with a smaller effect; inactive = flat or rising curve; cell line not stated here;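 note: intracellular cAMP measured with PDE inhibitor Ro 20-1724 present during compound exposure; potency is the fitted concentration of half-maximal effect; % is set by controls: 0 for no effect and ±100 for the full control effect; nearly all actives have a fitted effect of over 65% in size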
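HTRF cAMP read-out (cAMP-d2 plus anti-cAMP antibody-K in lysis buffer, 30 min RT). Before lysis, cells are exposed to compounds with […] for 30 min at 37C in DPBS containing Ca/Mg, BSA and Tween 20.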
ClpP mod = qHTS Assay for Activators of ClpP | 340,000 tested, 1.9% active | Potency, µM (series often up to 57.5 µM), for the others: top-dose activity change, negative = active | purified B. subtilis ClpP, FRET peptide cleavage, 20 min | AID 651965, 2013; active = well fitted falling curve with a large enough effect; inconclusive = small, poorly fitted or top-dose-only effect; inactive = no such curve, though single readings can be large or run the other way; note: potency is the fitted concentration of half-maximal effect; the source files actives as falling curves though it sought activators and does not explain the sign; nearly all actives have a fitted effect of over 65% in size; many hits overshoot -100%
Target sequence (P80244 whole entry, looked up): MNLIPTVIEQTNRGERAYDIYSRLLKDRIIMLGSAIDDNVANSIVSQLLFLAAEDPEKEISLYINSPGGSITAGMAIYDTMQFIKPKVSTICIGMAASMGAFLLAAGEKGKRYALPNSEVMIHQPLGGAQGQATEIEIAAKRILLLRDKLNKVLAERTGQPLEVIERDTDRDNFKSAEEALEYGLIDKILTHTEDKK
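Buffer: 100 mM Tris/HCl pH8, 100 mM KCl, 0.05% low protease BSA, 2.5% glycerol, 0.01% Tween-20. ClpP 10 microg/mL final; 20 min RT; delta FRET normalized to ADEP and DMSO controls.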
gsp agonist = qHTS for Agonist of gsp, the Etiologic Mutation Responsible for Fibrous Dysplasia/McCune-Albright Syndrome: qHTS | gsp mutant cells, cAMP HTRF, 30 min; control for the full effect not named in the record | Potency, µM (series often up to 76.9 µM), for the others: at the top dose activation (cAMP increase), usual class: activators | 340,000 tested, 0.13% active | AID 624287, 2012; active = well fitted activation curve with a large enough effect; inconclusive = small, poorly fitted or top-dose-only effect, or another doubt; inactive = no such curve, though single readings can be large or run the other way; cell line not stated here;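 note: phosphodiesterase inhibitor Ro 20-1724 added with compounds to block cAMP breakdown; potency is the fitted concentration of half-maximal effect; nearly all actives have a fitted effect of over 60% in size; about a fifth of the inactives were tested at one dose only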
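Cells in DMEM/10% FBS with G418 were pretreated with compounds in DMSO plus […] (300 uM stock) for 30 min at 37C. cAMP was measured by HTRF (cAMP-d2 plus anti-cAMP antibody-K) after 30 min at room temperature.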
Menin MLL FP FL = qHTS Assay for Inhibitors Targeting the Menin-MLL Interaction in MLL Related Leukemias: Competition With Fluorescein Labeled MLL-derived Peptide | FP activity change, % at 61.4 µM | 290,000 tested, under 10 active | Fluorescence polarization, fluorescein-MLL peptide displacement from menin | AID 1766, 2009; inconclusive = falling polarisation curve, or a change in total fluorescence; inactive = total fluorescence flat and polarisation flat or rising; no compound was filed as active; the % refers to the polarisation; negative = inhibition;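 note: % of control where 0% means no effect; inhibitors lower the polarisation; unlabelled MLL peptide was the positive control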
The depositor's hits bear a star; ? = inconclusive; / = no result given; [ ] = remark or other dose.

SMILES	Sfp PPTase inh	TRPV1 potentiator	CtBP-E1A blk	gsp antag	ClpP mod	gsp agonist	Menin MLL FP FL
O=C(O)CN(Cc1ccco1)S(=O)(=O)c1ccccc1	-22.3%	-15.2	1.2	3.5%	-0.5%	6.0%	1.2
C=CC(COCc1ccccc1)N(CC(=O)OC)S(=O)(=O)c1cc(Br)ccc1OC (stereo not given)	/	/	4.7	-0.1%	-2.7%	/	/
O=C(Nc1ccc2nn(-c3ccc(F)cc3)nc2c1)c1cccnc1	5.2%	0.1	-20.8	-10.4%	-6.9%	-11.0%[15.4 µM]	-0.3
Cc1cc(C)cc(N(C(=O)c2sc(C)nc2C)C(C(=O)NC(C)(C)C)c2ccncc2)c1 (stereo not given)	13.9%	-16.7	12.0	8.3%	/	17.4%	-0.5
O=C(Nc1ccccc1F)Nc1ccccc1N1CCCCC1	-7.0%	-7.4	-15.8	-9.4%	-1.6%	-9.5%[15.4 µM]	-6.0
COc1ccc2cc(/C=C/C(=O)N3CCN(CC(=O)N4CCCCCC4)CC3)ccc2c1	4.6%	?	7.8	-14.5%	0.7%	10.7%[15.4 µM]	-1.7
O=C(CCN1C(=O)C2C3CCC(C3)C2C1=O)Nc1ccccc1Cl (stereo not given)	0.7%	3.1	5.2	14.8%	26.1%	5.2%	-0.4
COc1ccc(C(C(=O)NCC2CCCO2)N(Cc2cccs2)C(=O)c2snc(C(N)=O)c2N)cc1 (stereo not given)	10.4%	-2.7	3.5	-16.1%	/	-11.8%	-1.0
COc1cc(OC)cc(-c2c(-c3cccs3)c3cc(-c4cnc(N)nc4)ccc3n2C)c1	/	/	-22.8	23.9%	12.3%	17.6%	/
Cc1[nH]c2ccccc2c1C(=O)CSc1nc2cc(S(=O)(=O)N3CCCCC3)ccc2o1	10.4%	-2.0	?	?	-4.4%	-3.3%	0.0
CN(Cc1ccc(Cl)cc1Cl)C(=O)CCNC(=O)c1ccco1	/	-13.1	/	0.9%	0.2%	20.0%	/
O=c1c2cc(-c3ccccc3)sc2ncn1/N=C/c1ccco1	-18.2%	-18.0	1.9	-9.7%	-5.8%	7.6%	5.4
CCOc1ccc(N(CC(=O)NC2CCCCC2C)S(=O)(=O)c2c(C)noc2C)cc1 (stereo not given)	17.3%	-11.7	0.7	1.9%	1.2%	28.9%	/
O=C(NCCCN1CCCC1)[C@H](CSCc1ccccc1)N1Cc2ccccc2C1=O	-7.0%	20.5	-2.4	11.4%	/	5.2%[15.4 µM]	2.4
COc1ccc(NC(=O)c2cc([N+](=O)[O-])ccc2O)cc1	6.3%	6.2	/	?	1.6%	-101.0%[inhibitor]	-3.3
Cc1ccc(S(=O)(=O)N2CCOCC2)cc1C(=O)Nc1nc2ccccc2[nH]1	20.8%	-8.1	-7.2	-10.3%	0.3%	-5.8%	-0.8
CCN(CC)c1ccc(/C=N/NC(=S)NCc2ccc(OC)cc2)cc1	7.8%	-10.7	-16.3	7.2%	/	7.7%[15.4 µM]	1.9
CC1(C)Cc2cccc(OCC(=O)OCC(=O)Nc3cccc(S(N)(=O)=O)c3)c2O1	-1.2%	2.0	/	2.0%	0.0%	5.1%	3.3
O=C(Nc1ccc2ccccc2c1)c1cn(-c2ccccc2)nc1-c1cccs1	-5.0%	-8.5	-4.2	-5.2%	31.6µM*	1.3%	/
COc1cc(C=O)ccc1OC(=O)N1CCOCC1	11.9%	9.4	12.9	7.6%	-5.2%	-7.6%	3.1
CSc1nc(-c2ccco2)nn1C(=O)c1ccccc1	14.1µM*	2.7	7.8	-7.8%	-2.6%	-2.8%	2.5
Cc1cccc(-n2c(SCC(=O)c3c(N)n(C4CC4)c(=O)[nH]c3=O)nnc2N2CCOCC2)c1	/	-3.5	/	9.0%	0.8%	3.5%	/
Cc1cc(C)cc(-n2cnc3cc(C(=O)O)ccc32)c1	-8.8%	1.9	4.5	-22.8%	-0.9%	-4.8%	-2.2
CC(C)C1Nc2ccc(C(=O)NC3CCCCC3)cc2NC1=O (stereo not given)	2.9%	0.9	-19.0	-6.7%	/	5.2%[15.4 µM]	-8.1
Cc1ccc(S(=O)(=O)NCCC(=O)NCC(c2ccc(F)cc2)N2CCOCC2)cc1 (stereo not given)	/	-4.5	-4.2	2.7%	-0.7%	3.5%	/
O=C(Cn1nnc(-c2ccc(Cl)cc2)n1)N1CCN(C(=O)c2ccco2)CC1	/	-3.3	7.1	7.8%	2.3%	1.9%	/
O=C(NCc1cccc(Cl)c1)c1cc(=O)[nH]c2ccccc12	1.9%	4.0	8.3	2.5%	/	25.5%	2.2
CCn1c(SCC(=O)Nc2cc(C)ccc2C)nnc1-c1cnccn1	13.0%	4.2	-1.3	9.3%	-1.5%	27.5%	-0.3
O=S(=O)(c1cccc2nsnc12)N1CCCCC1	8.1%	5.6	/	4.5%	0.1%	20.8%	1.2
CCN(CC)S(=O)(=O)c1cc(Br)c(C)cc1OC	17.1%	3.8	7.6	-15.5%	1.2%	3.1%	0.5
CCOC(=O)c1c2ccccc2[n+]([O-])n1[C@@H](C)C(N)=O	/	0.9	/	-3.9%	-0.9%	14.0%	/
COc1ccc(C(=O)NNC(=O)C(NC(=O)c2cc(OC)cc(OC)c2)C(C)C)cc1 (stereo not given)	/	-16.3	-0.3	3.2%	-6.6%	0.3%	/
CCOc1ccc2nc(SCc3ccc(C(=O)OC)o3)[nH]c2c1	-4.6%	-0.1	-0.2	-14.7%	1.7%	-9.3%	-1.4
Fc1cnc(N2CCOCC2)nc1NCc1ccccc1	10.6%	7.1	1.7	0.1%	?	-2.9%	2.3
COCCN(C(=O)c1csnn1)C(C(=O)NC1CCCC1)c1ccc(C)cc1 (stereo not given)	-25.5%	22.0	-1.2	6.2%	/	7.2%	-1.8
CC(=O)NCc1ccc2[nH]c(C)cc2c1	-24.6%	15.7	-0.1	-6.7%	-11.0%	-10.0%	-0.5
Cc1ccc(S(=O)(=O)Oc2ccccc2/C=C2\SC(=O)NC2=O)cc1	17.5%	13.0	-5.4	-21.1%	/	?	-1.0
CN(C)C1N(C(=O)c2ccccc2)N=C2c3ccccc3S(=O)(=O)N21 (stereo not given)	7.3%	4.5	4.4	1.5%	/	-1.1%	1.0
CC(CCCN(C)C)C(Cc1ccccc1)c1ccccc1 (stereo not given)	/	/	0.9	7.7%	/	1.5%[15.4 µM]	/
Cc1cccc(N2CCN(CC(O)COc3ccccc3)CC2)c1 (stereo not given)	/	/	-1.4	-6.1%	1.3%	7.8%[15.4 µM]	/
CC(O)CNc1ccc(-c2nn(C)c(=O)c3ccccc23)cc1[N+](=O)[O-] (stereo not given)	-14.0%	-5.2	-10.0	-6.5%	/	-2.7%[15.4 µM]	?
CCOc1cc(C(=O)N2CCC3(CC2)NCCc2[nH]cnc23)cc(OCC)c1OCC	4.4%	0.1	/	-17.6%	-2.3%	5.0%	/
O=C(Nc1cccc(S(=O)(=O)N2CCOCC2)c1)C1=NN(c2ccccc2)C(=O)CC1	7.4%	-11.9	3.3	-4.4%	-0.3%	?	4.4
O=C(COC(=O)c1cc[n+]([O-])cc1)Nc1cccc(Br)c1	/	7.8	-24.5	-4.2%	/	-37.2%[15.4 µM]	/
O=C(Cn1cc(C(F)(F)F)cc(Cl)c1=O)Nc1cc(S(=O)(=O)N2CCOCC2)ccc1Cl	15.2%	2.0	-5.0	-0.1%	?	4.8%	7.8
COc1ccccc1-c1nnc(Nc2nc3c(OC)cccc3s2)o1	17.6%	11.5	-4.5	-3.6%	35.5µM*	?	1.1
O=C(Nc1ccc2c(c1)S(=O)(=O)N=C1CCCCCN12)c1ccccc1Cl	6.5%	15.3	/	7.2%	-3.0%	-22.3%	3.4
O=C(NCc1cccs1)c1ccccc1C(=O)NCc1cccs1	3.9%	18.2	1.2	-3.3%	-1.6%	-3.5%	0.0

Some entries already given, limited to ClpP mod and Menin MLL FP FL:
| structure | ClpP mod | Menin MLL FP FL |
| --- | --- | --- |
| CN(C)C1N(C(=O)c2ccccc2)N=C2c3ccccc3S(=O)(=O)N21 (stereo not given) | / | 1.0 |
| COc1ccccc1-c1nnc(Nc2nc3c(OC)cccc3s2)o1 | 35.5µM* | 1.1 |

Next part.
SMILES	Sfp PPTase inh	TRPV1 potentiator	CtBP-E1A blk	gsp antag	ClpP mod	gsp agonist	Menin MLL FP FL
O=C(Nc1sc2c(c1C(=O)O)CCCCC2)c1ccccc1	39.8µM*	12.0	-1.7	-27.5%	/	?	2.3
Cc1ccc(C(c2ccc(C)o2)c2cccc([N+](=O)[O-])c2O)o1	?	-22.8	?	-18.3%	1.2%	-27.7%	25.6
CCSc1cc(N2CCCC2)nc(-c2ccccc2)n1	3.0%	-1.0	3.1	-1.3%	-2.3%	9.8%	5.4
CC(c1ccco1)N(C(=O)c1ccc(C(F)(F)F)cc1)c1ccccn1 (stereo not given)	2.8%	4.8	5.7	-17.6%	-1.7%	-0.3%[15.4 µM]	4.4
O=C(Nc1ccc(Oc2cccnc2)cc1)C1CCN(Cc2cc(Cl)ccc2O)CC1	-2.1%	-19.9	/	-8.8%	-1.6%	-2.7%	/
O=C(Nc1ccnn1C1CCN(Cc2ccc(O)c(Cl)c2)CC1)C1CCCC1	8.0%	9.8	0.5	-2.6%	-0.2%	-31.5%[inhibitor]	3.6
CC1CCN(S(=O)(=O)c2ccc3c(c2)CC(C)N3C(=O)C2CCC2)CC1 (stereo not given)	6.8%	-9.0	/	-7.5%	0.8%	22.6%	1.3
CC(C)(C)C(=O)/C(=C/c1ccc(Cl)cc1)n1cncn1	9.4%	3.3	/	10.0%	-0.9%	-1.3%	2.1
O=C(NC(=S)Nc1ccccc1)C1CCCCC1	?	6.3	6.5	-0.9%	-0.1%	?	/

Source: PubChem (National Center for Advancing Translational Sciences (NCATS))
